Marburg entry inh = qHTS for inhibitors of binding or entry into cells for Marburg Virus | 300,000 tested, 1.8% active | AID 540276, 2011 | Potency, µM (series often up to 37.8 µM), for inactives: top-dose activity change, negative = inhibition, actives largely listed as inhibitors | Marburg virus pseudotyped entry inhibition, cell reporter; control for the full effect not named in the record; about a third of the inactives were read at about 46 µM; active = well fitted inhibition curve with a large enough effect; inconclusive = small, poorly fitted or top-dose-only effect, or effect the other way; inactive = flat fitted curve, though single readings scatter; tested in HEK293 cells; about a fifth of its hits are not listed in these tables; further: on the % scale 0 is the no-effect control and ±100 the full control effect; luciferase read-out
2A StopGo = High Throughput Screening for Foot and Mouth Disease Virus Antivirals | Potency, µM (titrated, usually from 57.9 µM), inactives show top-dose signal change, negative = less light | AID 1159524, 2015 | 410,000 tested, 1.2% active | human cells with a luciferase reporter of 2A StopGo recoding; control for the full effect not named in the record; active = well fitted falling curve with a large enough effect; inconclusive = small, poorly fitted or top-dose-only effect; inactive = no such curve, though single readings can be large or run the other way; tested in HEK293T cells; further: on the % scale 0 is the no-effect control and ±100 the full control effect; nearly all actives have a fitted effect of over 45% in size; luciferase light after 4 h
RE007 growth inh = qHTS Assay for Inhibitors of the HIV-1 protein Vpr | 360,000 tested, 0.21% active | S. pombe RE007 Vpr strain, BacTiter-Glo ATP luminescence, 24 h; control for the full effect not named in the record | AID 651644, 2012 | Potency, µM (doses to about 92.2 µM), without a hit: top-dose activity change, negative = less growth; active = well fitted falling curve with a large enough effect; inconclusive = small, poorly fitted or top-dose-only effect; inactive = no such curve, though single readings can be large or run the other way;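 further: on the % scale 0 is the no-effect control and ±100 the full control effect; nearly all actives have a fitted effect of over 50% in size; the assay follows cell death caused by Vpr and the record does not say whether a fall means rescue or toxicity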
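Fission yeast strain RE007, carrying one chromosomally integrated HIV-1 vpr copy, was seeded at OD 0.01 in PMG+AL medium with 23 nL pinned compound. After 24 h at 30 °C and 99% humidity, viability was read by BacTiter-Glo luminescence.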
NS1 function inh = qHTS Assay for Inhibitors of Influenza NS1 Protein Function. S. cerevisiae slowed by influenza A NS1, growth recovery by OD600. 270,000 tested, 0.4% active. Potency, µM (highest dose often 46.1 µM), for the others: at the highest dose activity, positive = more growth; further: actives are rising curves; nearly all actives have a fitted effect of over 50% in size
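Recovery from NS1-induced slow growth read by OD600 in budding yeast switched to galactose assay medium (pH 6.0, -URA) at 1:100 dilution. Compound 23 nl per well; the matching strain lacking NS1 serves as control.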
SARS PLpro yeast = qHTS of Yeast-based Assay for SARS-CoV PLP. S. cerevisiae expressing SARS-CoV PLpro, growth rescue; control for the full effect not named in the record. Potency, µM (series often up to 32.9 µM), for inactives: at the highest dose activity, positive = growth rescue. 330,000 tested, 0.19% active; further: 0% is about no effect; nearly all actives have a fitted effect of over 55% in size; growth read by luminescence after 48 h
Cruzain noTriton = qHTS Assay for Promiscuous and Specific Inhibitors of Cruzain (without detergent) | Cruzipain (Trypanosoma cruzi), P25779 | purified cruzain, Z-FR-AMC fluorescence, no detergent | Potency, µM, without a hit: max response, negative = inhibition, actives largely listed as inhibitors | 200,000 tested, 2.3% active; active means well fitted curve in the direction sought with a large enough effect; inconclusive means small, poorly fitted or top-dose-only effect, or another doubt; inactive means no such curve, though single readings can be large; an effect the other way counts as inactive or inconclusive;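 further: plate controls were enzyme without inhibitor for no effect and buffer without enzyme for full effect; nearly all actives have a fitted effect of over 40% in size; top concentration of the series not given in the record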
Target sequence (P25779 123-467 limits assumed): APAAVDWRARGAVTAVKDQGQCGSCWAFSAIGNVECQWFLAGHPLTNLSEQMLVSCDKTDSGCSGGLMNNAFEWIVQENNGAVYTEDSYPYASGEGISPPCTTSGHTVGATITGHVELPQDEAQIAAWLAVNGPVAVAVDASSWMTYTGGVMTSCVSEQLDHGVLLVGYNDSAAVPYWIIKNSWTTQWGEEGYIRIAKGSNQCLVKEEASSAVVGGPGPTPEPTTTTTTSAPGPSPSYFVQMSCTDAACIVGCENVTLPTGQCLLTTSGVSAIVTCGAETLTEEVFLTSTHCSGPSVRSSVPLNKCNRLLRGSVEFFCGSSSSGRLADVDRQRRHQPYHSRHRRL
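Detergent-free condition (0.00005% Triton X-100) in acetate buffer pH 5.5 with DTT. 1.5 nM enzyme and compound were pre-mixed 15 min, then 2 uM Z-FR-AMC substrate added; reaction progress from fluorescence change between first and third reads (60 s).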
Lassa entry inh = qHTS for Inhibitors of binding or entry into cells for Lassa Virus. Lassa virus pseudotype entry inhibition, cell reporter; control for the full effect not named in the record. 300,000 tested, 1.2% active. AID 540256, 2011. Potency, µM (top dose mostly 37.9 µM), inactives show at the top dose activity change, negative = inhibition, most hits filed as inhibitors; active means well fitted inhibition curve with a large enough effect; inconclusive means small, poorly fitted or top-dose-only effect, or effect the other way; inactive means flat fitted curve, though single readings scatter; tested in HEK293 cells; further: on the % scale 0 is the no-effect control and ±100 the full control effect; nearly all actives have a fitted effect of over 50% in size; luciferase read-out
Cruzain inh Det = qHTS Assay for Promiscuous and Specific Inhibitors of Cruzain (with detergent); AID 1478, 2009; 200,000 tested, 0.43% active; purified cruzain, Z-FR-AMC fluorescence, 0.01% Triton; Cruzipain (Trypanosoma cruzi), P25779; Potency, µM, for the others: max response, negative = inhibition, actives largely listed as inhibitors; active means well fitted curve in the direction sought with a large enough effect; inconclusive means small, poorly fitted or top-dose-only effect, or another doubt; inactive means no such curve, though single readings can be large; an effect the other way counts as inactive or inconclusive;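 further: plate controls were neutral wells for no effect and buffer without enzyme for full effect; nearly all actives have a fitted effect of over 40% in size; top concentration of the series not given in the record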
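Steps: dispense cruzain (1.5 nM final) in acetate buffer pH 5.5 with DTT and 0.01% Triton X-100; pin-transfer compounds; incubate 15 min RT; add Z-FR-AMC (2 uM final); read fluorescence every 30 s, using the 60 s intensity change.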
Active calls of the source: *; ? = inconclusive; . = not tested or not shown; & = joins results of further samples; ! = a repeat was not active; [ ] = another dose, or the depositor's remark. Unless noted, the call rests on the fitted dose curve; in most records, active means well fitted rising curve with a large enough effect; inconclusive means small, poorly fitted or top-dose-only effect; inactive means no such curve, though single readings can be large or run the other way. Potency means the concentration at half of the fitted maximal effect. Outcome played no part in choosing rows, and some 4.7% of all compounds hit somewhere here.

Molecule	Marburg entry inh	2A StopGo	RE007 growth inh	NS1 function inh	SARS PLpro yeast	Cruzain noTriton	Lassa entry inh	Cruzain inh Det
CC1(C)CC(=O)C(N=Nc2ccc(Br)cc2)=C(O)C1	11.2%[46.1 µM]	1.4%	32.2%	0.6%	0.6%	.	4.2%	.
COc1ccccc1N1CCN(S(=O)(=O)CCNC(=O)C(c2ccccc2)c2ccccc2)CC1	.	-22.4%	.	.	.	?	-29.5%[46.1 µM]	-4.2%
COc1ccc(NC(=O)CSC2=Nc3ccccc3C3=NC(CC(=O)NCc4ccccc4OC)C(=O)N23)cc1Cl (centres undefined)	?	-1.8%	.	.	.	3.3%	5.5%[46.1 µM]	-7.6%
COc1ccc(COC(=O)c2ccc(Br)c(S(=O)(=O)N3CCOCC3)c2)cc1F	?	-27.8%	-4.3%	.	-13.2%	.	?	.
CCOC(=O)N1CCN(C(=O)C2CCN(S(=O)(=O)N3CCC4(CC3)OCCO4)CC2)CC1	.	21.9%	7.4%	-7.6%	2.7%	.	.	.
O=C1CC(=C2c3ccccc3-c3ccccc32)C(=O)N1CCN1CCN(c2ccccc2)CC1	-3.9%	-16.3%	-17.1%	.	.	.	3.6%	.
CCNC(=O)/C(=C/c1cccc([N+](=O)[O-])c1)NC(=O)c1ccc(C)cc1	.	2.5%	6.7%	-7.9%	-0.5%	.	.	.
COc1cccc(C(=O)Nc2cc(NC(=O)c3ccco3)ccc2OC)c1	-21.5%&-21.5%	10.8%	-9.0%	-45.0%	-6.1%	-11.5%	1.0%	-3.4%
CCCCC(CC(C)O)c1n[nH]c(=S)n1-c1ccccc1 (centres undefined)	?	-3.1%	3.7%	4.0%	5.2%	1.2%	-0.9%	-0.9%
COc1ccc(CCNC(=O)C2CC(c3ccc([N+](=O)[O-])cc3)=NO2)cc1 (centres undefined)	.	26.8%	13.4%	-20.7%	-1.2%	4.2%	.	-0.6%
CCOC(=O)CSc1nnc(CNc2nc(-c3ccccc3)cs2)n1C	?	-15.0%	1.9%	18.6%	0.4%	17.5%	9.5%	-0.4%
O=C(COC(=O)c1cccc(-n2cnnn2)c1)c1ccc(F)cc1	-7.3%	67.1%[activator]	3.9%	.	3.4%	.	?	.
COC(=O)c1ccc(Oc2c(F)c(F)nc(N3CCOCC3)c2F)cc1	?	-11.2%	-3.7%	.	-17.6%	.	-23.8%	.
Cc1cccc(N=C2NC(=O)/C(=C/C=C/c3ccco3)S2)c1C	-12.4%	-5.2%	-26.9%	23.4%	-9.0%	?	?	?
COc1ccc2nc(NC3=NCN(CC4CCCO4)CN3)nc(C)c2c1 (centres undefined)	.	.	.	-0.8%	4.4%	-27.4%	.	-9.3%
COCCCNC(=O)C1CCN(C(=O)c2cc3sccc3n2Cc2ccc(F)cc2)CC1	-18.1%	.	6.4%	-41.6%	5.4%	?	-9.4%	0.1%
CCCCN1C(=O)C(=O)N(CC(=O)c2ccc[nH]2)C1=O	?	16.1%	-1.7%	.	-5.2%	.	?	.
CCc1cccc(NC(=O)c2sc3nc4n(c(=O)c3c2C)CCC4)c1	.	17.0%	15.8%	-5.0%	-1.4%	.	.	.
Cc1sc2ncn(CC(=O)N(C)c3cccc(C(F)(F)F)c3)c(=O)c2c1S(=O)(=O)N1CCN(c2ncccn2)CC1	-16.1%[46.1 µM]	7.7%	.	.	.	?	9.0%[46.1 µM]	-3.7%
Cc1ccc2[nH]c(=O)c(C(c3nnnn3CC3CCCO3)N3CCOCC3)cc2c1 (centres undefined)	1.2%	24.2%	?	-1.6%	4.2%	-11.0%	7.3%	-7.8%
COC(=O)CN(c1cc(OC)ccc1OC)S(=O)(=O)c1ccc(OC)c(OC)c1	-7.1%&-7.1%[46.1 µM]	-8.5%	-15.1%	2.5%	-4.2%	-0.5%	6.2%	4.1%
O=C(CCNC(=O)c1ccccc1Cl)NNC(=O)c1ccccc1O	-14.9%	0.7%	10.6%	.	-0.9%	.	1.7%	.
Cn1c(N=Nc2ccccc2)nc2ccccc21	?	-11.5%	15.8µM*	-47.1%	-60.4%	-11.5%	?	-3.9%
FC(F)(F)c1n[nH]c(=S)n1/N=C/c1ccco1	?	-14.1%	-12.5%	4.5%	21.6%	-5.7%	?	-4.8%
COc1cccc(CNC(=O)C(=O)NCC(c2ccco2)S(=O)(=O)c2ccccc2)c1 (centres undefined)	.	?	.	.	.	-4.9%	-19.2%[46.1 µM]	-1.5%
O=C1c2ccc(Br)cc2C(=O)N1c1ccc(Cc2ccncc2)cc1	?	?	?	-12.8%	-1.0%	.	20.3%	.
COc1ccc(Br)cc1C1Sc2ccccc2NC2=C1C(=O)c1ccccc12 (centres undefined)	?	-22.4%	.	.	.	15.8µM*	2.7%[46.1 µM]	-1.7%
CCN(CC)S(=O)(=O)c1cccc(N=Nc2c(O)n(CC)c(=S)n(CC)c2=O)c1	.	-22.7%	-1.4%	4.5%	-0.5%	.	.	.
CSc1ccc(C2NN=C(c3ccccc3)S2)cc1 (centres undefined)	2.82µM*	?	?	.	.	.	6.31µM*	.
CCc1ccc(-c2nc(CS(=O)CC(=O)NCc3cccnc3)c(C)o2)cc1 (centres undefined)	27.1%	3.8%	14.4%	?	-0.7%	-2.0%	11.3%	-3.1%
COc1cccc(CN2C(=O)C3(SCC(=O)N3c3ccc(F)cc3)c3ccccc32)c1 (centres undefined)	.	-2.4%	.	.	.	-2.4%	-25.4%[46.1 µM]	-7.5%
CCOc1cc(C2c3c(n[nH]c3C)C(=O)N2c2ccc(C)cc2)ccc1O (centres undefined)	12.1%&12.1%	22.8%	8.5%	-3.5%	1.9%	12.3%	-26.9%	2.2%
O=C(Nc1ccc(S(=O)(=O)N2CCCCC2)cc1)C1CC(=O)N(Cc2ccccc2)C1 (centres undefined)	-12.5%	12.7%	-3.5%	.	2.0%	.	4.6%[46.1 µM]	.
CN1CCN(C(=O)CNc2ccc(C(F)(F)F)cc2[N+](=O)[O-])CC1	0.9%[46.1 µM]	-11.1%	-0.7%	.	-1.8%	.	.	.
Cc1csc(=O)n1CC(=O)OCC(=O)Nc1cc(S(=O)(=O)N2CCOCC2)ccc1Cl	-4.5%	-18.8%	-20.9%	.	-0.3%	.	-4.1%	.
Cn1c(=O)c2c(nc(SCC(=O)Nc3ccccc3)n2C)n(C)c1=O	.	-26.6%	3.0%	6.5%	-2.5%	-7.2%	.	1.6%
CCn1c(C)c(C(C)=O)c(NCc2ccccc2)nc1=S	-27.4%	51.0%[activator]	-1.4%	-6.1%	-8.9%	-0.4%	10.3%	-1.9%
COC(=O)Nc1cc([N+](=O)[O-])ccc1OC	0.6%	20.6%	-25.6%	-13.9%	-1.8%	8.4%	16.1%	0.0%
COc1ccc(CCN(Cc2cc3cc(C)c(C)cc3nc2Cl)C(=O)C2CC2)cc1	?	.	7.5%	1.7%	1.2%	3.3%	?	-4.0%
CCOC(=O)NC(Nc1cc(C)on1)(C(F)(F)F)C(F)(F)F	1.5%	-2.8%	7.9%	3.9%	-3.5%	-8.1%	-1.1%	0.6%
CN1CCc2cc(O)cc3c2[C@H]1Cc1ccc(O)c(O)c1-3	?	-8.2%	-3.7%[18.4 µM]	.	.	.	?	.
O=C(NCCOc1ccc(F)cc1)C1CCC(=O)N(CCc2ccccn2)C1 (centres undefined)	.	-16.0%	-4.3%	5.4%	6.6%	.	22.7%	.
O=C(CSc1ncn[nH]1)N/N=C/c1ccc(Br)cc1	.	20.9%	5.1%	-2.5%	-5.7%	.	.	.
FC(F)(F)c1cc(-c2ccccc2)nc(N2CCOCC2)n1	-24.9%	-12.6%	-5.5%	7.0%	1.2%	-4.6%	-18.0%	-1.7%
Cc1cccc2c1NC(=O)C2=Nc1ccc(Cl)cc1	-24.0%[46.1 µM]	1.9%	-2.0%	9.8%	-6.9%	.	-5.2%[46.1 µM]	.
O=C(O)CCC(=O)N1N=C(c2c(-c3ccccc3)c3cc(Cl)ccc3[nH]c2=O)CC1c1ccco1 (centres undefined)	1.0%	-8.2%	19.8%	?	8.2%	2.2%	3.9%	-3.5%
CCc1ccc(-c2cc(C(=O)NN3CCN(C)CC3)c3ccccc3n2)cc1	?	13.2%	2.7%	5.0%	-10.4%	-6.2%	0.9%	-5.2%
O=C(NCc1n[nH]c(=S)n1-c1ccc(Br)cc1)c1ccc(S(=O)(=O)N2CCOCC2)cc1	0.4%[46.1 µM]	-16.2%	-3.9%	.	-0.5%	.	9.4%[46.1 µM]	.
CCc1ccc(S(=O)(=O)c2nnn3c2nc(NCCNC(C)=O)c2ccccc23)cc1	0.2%[46.1 µM]	18.5%	-7.0%	.	0.4%	.	7.8%	.
Cc1ccc(OCCCC(=O)NNC(=O)c2ccccn2)cc1	?	-13.1%	-28.1%	.	?	.	?	.
CC(C)N1CCN(S(=O)(=O)c2ccccc2)c2ccccc21	?	37.7%[activator]	8.1%	.	.	.	6.9%[46.1 µM]	.
N#Cc1ccc(N=c2ssnc2Cl)cc1	-0.3%&-0.3%	?	35.5µM*!	-108.9%	-5.7%	-11.7%	10.0%	-8.5%
